Mtb betalactam: beta-lactam sensitization of Mtb H37Rv. M. tuberculosis H37Rv growth with meropenem, percent inhibition; hits of this screen are not shown here. inhibition, % at 25 µM. 0.27% of 330,000 active. AID 434955;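 active = about 74% or more and at least 40 points above the plate without the antibiotic, then above 30% in a dose series; inconclusive = first-round hits that could not be retested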;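 note: growth measured after seven days incubation then overnight dye step; 0% = bacteria only wells and 100% = bacteria with antibiotic; twin plates without the antibiotic show which effects depend on it; some results filed as inactive read as strong as hits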
YopH inh: inhibitors of Yersinia enterocolitica YopH tyrosine phosphatase; 0.16% of 140,000 active; inhibition, %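 (about 10 µM by stock and volumes)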; fluorescence Ex485/Em525;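 active = inhibition of 50% or more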;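 note: controls were vehicle for no effect and minimum signal wells for full effect; inactives centre near -20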
Mtb H37Rv: M. tuberculosis H37Rv growth inhibitors, H37Rv strain (AID 1626) | inhibition, % at 10 µM, or IC50 in µM where a hit was titrated | M. tuberculosis H37Rv growth inhibition; higher % means a stronger effect | 0.95% of 220,000 active;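 active = confirmed in a dose series; inconclusive = inhibition above 80% but not taken into the dose series; inactive = below 80% or under 30% at every dose of the series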;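 note: bacteria incubated seven days before Alamar blue readout; 0% = bacteria only wells and 100% = bacteria with antibiotic wells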
RecA splice inh: blocks M. tuberculosis RecA intein splicing; P9WHJ3; cell-free RecA intein splicing, fluorescence; inhibition, %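 (about 9 µM by stock and volumes)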; 0.75% of 290,000 active; in the data active = inhibition above about 30%; inconclusive = no clear call, values can overlap the other calls;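 note: 0% = vehicle wells and 100% = reference inhibitor control wells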
Target sequence (P9WHJ3 whole entry, looked up, canonical isoform): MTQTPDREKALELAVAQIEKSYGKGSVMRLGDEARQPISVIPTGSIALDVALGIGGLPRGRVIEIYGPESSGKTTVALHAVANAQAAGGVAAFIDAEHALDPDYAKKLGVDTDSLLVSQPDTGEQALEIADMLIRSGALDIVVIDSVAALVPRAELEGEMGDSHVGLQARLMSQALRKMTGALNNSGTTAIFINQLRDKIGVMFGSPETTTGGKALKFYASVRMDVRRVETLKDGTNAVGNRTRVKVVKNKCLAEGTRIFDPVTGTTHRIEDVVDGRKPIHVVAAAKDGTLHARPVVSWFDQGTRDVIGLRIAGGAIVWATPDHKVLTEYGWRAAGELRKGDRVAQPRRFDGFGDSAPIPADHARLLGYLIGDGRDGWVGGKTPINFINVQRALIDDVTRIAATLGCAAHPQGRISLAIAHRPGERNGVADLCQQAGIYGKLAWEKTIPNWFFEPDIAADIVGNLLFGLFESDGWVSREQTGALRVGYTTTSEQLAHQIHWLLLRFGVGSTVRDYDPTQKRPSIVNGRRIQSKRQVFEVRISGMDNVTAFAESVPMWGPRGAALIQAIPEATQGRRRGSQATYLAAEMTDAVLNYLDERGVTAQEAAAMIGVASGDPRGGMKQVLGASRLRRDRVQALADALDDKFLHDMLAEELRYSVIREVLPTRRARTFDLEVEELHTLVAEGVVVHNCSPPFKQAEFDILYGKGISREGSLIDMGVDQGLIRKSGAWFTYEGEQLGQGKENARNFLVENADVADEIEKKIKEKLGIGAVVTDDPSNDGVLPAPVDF
Arbovirus anti: blocks arbovirus infection | AID 1251 | 0.37% of 200,000 active | inhibition, % at 10 µM | arbovirus infection cell-based antiviral screen;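 active = inhibition from about 30%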;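 note: bluetongue infection of BSR cells; cell survival read as ATP light after 72 h; 0% = infected wells without compound and 100% = uninfected wells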
Arbovirus anti repeat: recorded beside Arbovirus anti, whose call it bears; inhibition, %; measured here: 10K subset replicate screen; many hits read low in the repeat;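 first of two repeat runs on a subset; 0% = infected and 100% = uninfected wells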
Active calls of the source: *; i = inactive; ? = inconclusive; · = no result given; & = joins results of further samples.

SMILES	Mtb betalactam	YopH inh	Mtb H37Rv	RecA splice inh	Arbovirus anti	others
CCS(=O)(=O)N1CCCC(C(=O)N2CCc3ccccc3C2)C1 (stereo unspecified)	-3	-21	·	-1.2	-7
Cc1sc2nc(CSc3n[nH]c(N)n3)[nH]c(=O)c2c1C	2	·	-8%	-0.7	12
CN1CCN(S(=O)(=O)c2ccc3c(c2)NC(=O)C2CCCN32)CC1 (stereo unspecified)	-4	-22	-5%	i	12
CC(CO)NCC12CC3CC(CC(C3)C1)C2 (stereo unspecified)	-2	·	-15%	1.8	20
COc1cccc(CN(C(=O)c2ccccc2)C2CCS(=O)(=O)C2)c1 (stereo unspecified)	5	·	·	5.4	·
Cc1cc(C)n(C(=O)/C=C/c2cccs2)n1	-3	·	3%	-0.7	·
O=C1CC(c2ccco2)CC2=C1C1c3ccccc3C(=O)N1c1ccccc1N2 (stereo unspecified)	11	-48	-1%	-1.5	-16	Arbovirus anti repeat=-16
Cn1cc(CN2CCC(O)CC2)c(-c2ccc(Oc3ccccc3)cc2)n1	2	·	5%	0.5	-15
N#CCOC(=O)C1c2ccccc2Oc2ccccc21	60	·	·	3.1	·
O=C(CCCCCN1C(=O)c2ccccc2C1=O)Nc1ccccc1	-6	-35	-6%	-0.1	4
CCCCN(CC)Cc1ccc(CNC(=O)Nc2ccc(Cl)cc2)o1	-7	·	0%	1.0	-15
COc1ccc(NC(=O)CCNS(=O)(=O)c2cc(Br)cnc2N)c(OC)c1	8	·	·	-0.5	·
O=C(COc1ccc(Br)cc1Cl)Nn1cnnc1	2	·	-1%	0.4	9
CC(=C/c1ccccc1)/C=N/NC(=O)c1ccccn1	92	·	3%	-0.3	·
CCN(CC)C(=O)Cn1cc(S(=O)(=O)CC(=O)N2CCOCC2)c2ccccc21	-1	·	·	-0.2	·
C/C(=N\NC(=O)Cc1ccc(Cl)cc1)c1ccc(F)cc1	-23	·	·	1.0	·
O=C(NCC(c1cccnc1)N1CCOCC1)c1ccc2c(c1)OCO2 (stereo unspecified)	0	-2	-9%	-2.8	3
O=C(NCCCN1CCOCC1)[C@@H]1CSC2c3ccccc3C(=O)N21 (stereo partly specified)	-12	10	-5%	0.4	7
CC1CN(C(=S)Nc2ccc(Br)cc2)CC(C)O1 (stereo unspecified)	-3	·	·	2.6	·
CN(C(=O)Cn1cnc2ccccc2c1=O)C1CCS(=O)(=O)C1 (stereo unspecified)	-7	·	·	-4.9	·
CCCCCCCCCCCCC(=O)CCCCC(=O)O	1	·	10%	4.8	-20
O=C1CC(c2ccccc2)Cc2nc(NCc3ccco3)ncc21 (stereo unspecified)	-3	-34	·	0.8	-2
C[C@H]1OC[C@@H](C[N+](C)(C)C)O1	-6	-16	-9%	-1.4	3
CCN1CCN(C(c2cccs2)C(C)NC(=O)c2ccccc2)CC1 (stereo unspecified)	-4	-25	-4%	-2.1	4	Arbovirus anti repeat=1
O=C(NNC(=O)c1cc(C(F)(F)F)cc(C(F)(F)F)c1)c1ccc(Cl)cc1	17	·	-3%	-0.6	·
O=C1N(Cc2cccc(Cl)c2)C[C@@H]2C[C@@H](c3ccccn3)N3CCC[C@@]123	-11	·	-6%	1.7	-2
C=CCn1c(SCC(=O)Nc2nc3ccccc3s2)nc(O)c(CC)c1=O	-3	·	-4%	2.2	·
Cc1ccc(OCc2ccc(C(=O)Nc3nccs3)o2)cc1C	-2	1	-8%	2.1	-6
CC(C)CNS(=O)(=O)c1ccc(CCC(=O)NC2CCCC2)cc1	-3	·	0%	0.6	3
O=c1oc(/C=C/c2ccco2)nc2sc3c(c12)CCC3	96	24	·	0.8	63*
COCCCNC(=S)N/N=C/c1ccc(OC)c(Br)c1	79	·	20%	-4.2	·
CC(/C=C/c1ccccc1F)=N\NC(=O)c1cccc(F)c1	97	·	?	0.9	-18
CC(C)CC1NC(=S)N(C2CCCCC2)C1=O (stereo unspecified)	1	-16	12%	3.4	5
COc1ccc(Cc2nc(N)nc(N)n2)cc1	-18	9	-4%	1.0	3
Nc1ccc(C(=O)N2N=C(c3ccc(F)cc3)CC2(O)C(F)(F)F)cc1 (stereo unspecified)	1	·	·	0.4	·
Cc1csc2ncc(C(=O)N3c4ccccc4CC3C)c(=O)n12 (stereo unspecified)	6	-42	2%	-6.5	6
CCNC(=S)NNC(=O)c1ccc(OC)cc1	-1	·	-5%	·	0
O=[N+]([O-])c1ccc2c(c1)C(O)n1ncnc1S2 (stereo unspecified)	4	·	1%	2.6	-4
Cc1c(NC(=O)CN2C(=O)NC3(CCCCC3)C2=O)c(=O)n(-c2ccccc2)n1C	1	·	2%	3.2	9
NC(=S)Nc1nccc(-c2cccs2)n1	85	·	?	1.6	1
NS(=O)(=O)c1ccc(CCNC(=O)CNC(=O)c2ccccc2F)cc1	-8	·	·	0.6	·
Cc1ccc(/C=N/NC(=O)Nc2ccccc2)o1	5	-19	7%	-0.7	-5
Cc1ccc(/C=N/n2c(C)n[nH]c2=S)o1	6	-36	-1%	1.3	8
COc1cccc(NC(=O)NNC(=O)c2ccc3c(c2)NC(=O)C(C)(C)O3)c1	1	·	·	-4.2	·
CC1CC(C)CN(S(=O)(=O)N2CCCC(C(=O)NCCCN3CCOCC3)C2)C1 (stereo unspecified)	-9	·	·	-0.2	·

Among those listed so far, these contain a CF3 group.
SMILES	Mtb betalactam	YopH inh	Mtb H37Rv	RecA splice inh	Arbovirus anti	others
O=C(NNC(=O)c1cc(C(F)(F)F)cc(C(F)(F)F)c1)c1ccc(Cl)cc1	17	·	-3%	-0.6	·
Nc1ccc(C(=O)N2N=C(c3ccc(F)cc3)CC2(O)C(F)(F)F)cc1 (stereo unspecified)	1	·	·	0.4	·

(list continues)
SMILES	Mtb betalactam	YopH inh	Mtb H37Rv	RecA splice inh	Arbovirus anti	others
COc1cccc(CN2CCN(C(=O)c3cccc(OC)c3)CC2)c1	-2	·	·	0.0	·
O=C(C1=C[C@@H](c2ccc3c(c2)OCO3)C[C@@H](OCCCCO)O1)N1CCN(Cc2ccc3c(c2)OCO3)CC1	5	·	-5%	-1.0	2
CC(C)Oc1ccc(C(=O)Nc2cccc3cccnc23)cc1	85	·	8%	10	18
CN1CCN(C(=O)c2cc(Br)cn2C)CC1	-2	·	·	-0.6	·
COc1cc2c(c(OC)c1CC=C(C)C)C[C@H](c1ccc(O)cc1O)CO2	-2	·	0%	6.5	·
C=CCn1c(Oc2ccc(C(=O)OC)cc2)nc2c1c(=O)n(C)c(=O)n2C	-14	-33	-15%	0.1	11
CCNC(=O)Cn1c(=O)c(=O)n(Cc2ccccc2)c2ccc(Cl)cc21	-2	-9	6%	0.0	-6
COc1cc([N+](=O)[O-])ccc1N1C(=O)CC(Sc2nccc(C)n2)C1=O (stereo unspecified)	-5	·	·	-1.0	·
CCOc1ccccc1-n1c(SCC(=O)N2CCOCC2)nnc1-c1ccccn1	-6	-32	-8%	-3.9	-2
CCOc1cccc(C2c3c(oc4ccccc4c3=O)C(=O)N2c2ccccn2)c1 (stereo unspecified)	-3	-25	·	0.1	6	Arbovirus anti repeat=-3
COc1ccccc1C(=O)Nc1nnc(-c2ccc(F)cc2)s1	2	·	·	-0.9	·
CC(C)N1C(=O)CCC1C(=O)NCc1ccco1 (stereo unspecified)	-10	·	-3%	-1.3	2
CN(Cc1ccc(C#CCCO)cc1)CC1CCCN(CCc2ccc(Cl)cc2)C1 (stereo unspecified)	63	·	·	0.9	·
CN(Cc1cccs1)C(=O)c1ccc(S(=O)(=O)N2CCCCC2)cc1	-15	·	-3%	-1.4	·
CC(=O)c1ccc(S(=O)(=O)N2CCN(C(=O)c3ccccc3Cc3ccccc3)CC2)cc1	-6	·	·	-2.1	·
Clc1cccc(CNc2nnnn2-c2ccccc2)c1	-8	-18	4%	0.4	9
CCOc1cc(S(=O)(=O)NC2CCCCCC2)ccc1F	-4	0	-5%	0.0	3
Cc1cccc(NC(=O)c2ccc3c(Cl)c4c(nc3c2)CCCC4)n1	-2	·	5%	1.3	-5
Cc1ccc(OCC(=O)Nc2cc(C(C)(C)C)on2)cc1C	68	·	·	3.0	·
O=C1NC2NC(=O)N(C(Cc3ccccc3)C(=O)O)C2N1 (stereo unspecified)	-4	-48	-3%	-2.0	-3
COc1cc(OC)cc(-n2c3nc4ccccc4nc3c3c(=O)n(CC4CCCO4)cnc32)c1 (stereo unspecified)	3	·	-11%	2.1	·
CCOC(=O)C(CC)Sc1nc2c(cnn2-c2ccccc2)c(=O)[nH]1 (stereo unspecified)	2	7	7%	-1.7	18
N#Cc1nc(-c2ccc(F)cc2)oc1N1CCC(C(N)=O)CC1	5	·	·	-2.5	·
CSc1ncccc1C(=O)Nc1ccc2nc(C)sc2c1	-7	·	-5%	0.2	·
COc1ccc2c(c1)c(CC(=O)OCC(N)=O)c(C)n2C(=O)c1ccc(Cl)cc1	7	·	-5%	-0.4	·
O=C(NCCCNc1ccc(C(F)(F)F)cc1[N+](=O)[O-])c1ccc(Cl)cc1	4	0	-2%	-2.5	-3
CCn1c(SCC(=O)N(C)c2ccccc2)nc2c([nH]c3ccccc32)c1=O	-5	·	·	-4.3	·
Brc1csc(C=Nc2ccc3c(c2)OCCOCCOCCOCCO3)c1	-2	-26	-15%	-2.6	8
CCOC(=O)Nc1ccc(NC(=O)OCC)cc1	8	-14	-4%	2.1	-2
Cc1cccc(NC(=S)NC(=O)CCc2ccccc2)c1C	5	-22	13%	1.0	13

Retrieved by compound from the entries so far (5):
SMILES	Mtb betalactam	YopH inh	Mtb H37Rv	RecA splice inh	Arbovirus anti	others
CCOc1cc(S(=O)(=O)NC2CCCCCC2)ccc1F	-4	0	-5%	0.0	3
O=C(CCCCCN1C(=O)c2ccccc2C1=O)Nc1ccccc1	-6	-35	-6%	-0.1	4
O=C(COc1ccc(Br)cc1Cl)Nn1cnnc1	2	·	-1%	0.4	9
Cc1cccc(NC(=O)c2ccc3c(Cl)c4c(nc3c2)CCCC4)n1	-2	·	5%	1.3	-5
NS(=O)(=O)c1ccc(CCNC(=O)CNC(=O)c2ccccc2F)cc1	-8	·	·	0.6	·

Next part
SMILES	Mtb betalactam	YopH inh	Mtb H37Rv	RecA splice inh	Arbovirus anti	others
COC(=O)c1cc2oc3ccccc3c2n1Cc1ccccn1	57	0	-7%	6.0	7
COc1ccc(/C=C2\SC(=S)N(N3C(=O)CCC3=O)C2=O)cc1O	-3	·	-3%	-4.1	-4
Cc1cc(NS(=O)(=O)c2cccs2)no1	-4	-26	-2%	1.9	16
COc1ccc(N(C(=O)c2snc(C(N)=O)c2N)C(C(=O)NC2CCCC2)c2cccs2)cc1OC (stereo unspecified)	1	·	·	2.6	·
COCCOC(=O)C1=C(C)NC(C)=C(C(=O)OC(C)C)C1c1cccc([N+](=O)[O-])c1 (stereo unspecified)	-1	-42	3%	3.5&2.8	5
Cn1cccc1-c1nc2ccc([N+](=O)[O-])cc2[nH]1	-8	·	·	3.9	·
O=C(CSc1ccc(-c2ccco2)nn1)Nc1ccc(F)cc1	-13	·	·	4.0	·
O=C(c1ccccc1)N(Cc1cccc(Br)c1)C1CCS(=O)(=O)C1 (stereo unspecified)	2	·	·	-6.5	·
Cc1ccccc1CC1CCN(CCCNC(=O)Nc2ccccc2)CC1	1	·	·	-2.0	·
Cc1cc(/C=N/n2c(COc3ccccc3)nc3ccccc3c2=O)c(O)c([N+](=O)[O-])c1	7	-40	14%	9.1	-28
CN(C)S(=O)(=O)c1ccc(N=Cc2c(C(F)(F)F)[nH][nH]c2=O)cc1	0	·	-4%	-3.0	13
Cn1c(/N=C/c2cccs2)nc2ccccc21	-6	-27	-4%	-2.3	2	Arbovirus anti repeat=3
CN(C)c1cc(-c2ccc(C#N)cc2)oc(=O)c1Cl	-4	·	-5%	-2.8	·
COc1cccc(N(CC(=O)N2CCc3ccccc3C2)S(C)(=O)=O)c1	1	-22	-3%	-1.0	3
COc1cccc(CN=C2Nc3ccccc3CS2)c1	-8	·	12%	2.6	30*
COc1ccc(CN2CCN(Cc3c[nH]c4ccccc34)CC2CCO)c(F)c1 (stereo unspecified)	-14	·	·	1.4	·
CN(C)CCNC(=O)CNC(=S)N(Cc1ccccc1)Cc1ccccc1F	-3	·	7%	-1.8	-3
CC(=O)Nc1nnc(SCC(=O)NCCOc2ccccc2)s1	-11	-32	-19%	0.8	5	Arbovirus anti repeat=-3
O=C(O)c1c2c(nc3ccccc13)/C(=C/c1cccc([N+](=O)[O-])c1)CCC2	4	·	·	-0.9	·
C[C@H](NC(=O)[C@@H]1Cc2ccccc2CN1)C(=O)NC1CCCC1	0	·	·	0.9	·
COC(=O)c1ccc(/C=N/NC(=S)NCCN2CCOCC2)cc1	-6	·	-1%	-2.6	0
S=C(NNC(=S)NC1CC2CCC1C2)NC1CC2C=CC1C2 (stereo unspecified)	2	·	0%	0.3	·
CN(C)S(=O)(=O)c1cc(C(=O)OCCn2cnc3c2c(=O)n(C)c(=O)n3C)ccc1Cl	2	·	-4%	-1.3	7

Screening data deposited in PubChem by several laboratories.

Only part of the results is shown (hit frequency here may not be typical).
